# From PubChem
# StopGo reporter = High Throughput Screening for Foot and Mouth Disease Virus Antivirals | human cells with a luciferase reporter of 2A StopGo recoding; control for the full effect not named in the record | Potency, µM (series often up to 57.9 µM), for inactives: at the highest dose signal change, negative = less light | 410,000 compounds, 1.2% hits | AID 1159524, 2015; active = well fitted falling curve with a large enough effect; inconclusive = small, poorly fitted or top-dose-only effect; inactive = no such curve, though single readings can be large or run the other way; tested in HEK293T cells; note: % is set by controls: 0 for no effect and ±100 for the full control effect; nearly all actives have a fitted effect of over 45% in size; luciferase light after 4 h
# Cruzain inh Det = qHTS Assay for Promiscuous and Specific Inhibitors of Cruzain (with detergent). Potency, µM, for the others: max response, negative = inhibition, actives largely listed as inhibitors. purified cruzain, Z-FR-AMC fluorescence, 0.01% Triton. 200,000 compounds, 0.43% hits;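 note: plate controls were neutral wells for no effect and buffer without enzyme for full effect; nearly all actives have a fitted effect of over 40% in size; top concentration of the series not given in the record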
# Target sequence (P25779 123-467 limits assumed): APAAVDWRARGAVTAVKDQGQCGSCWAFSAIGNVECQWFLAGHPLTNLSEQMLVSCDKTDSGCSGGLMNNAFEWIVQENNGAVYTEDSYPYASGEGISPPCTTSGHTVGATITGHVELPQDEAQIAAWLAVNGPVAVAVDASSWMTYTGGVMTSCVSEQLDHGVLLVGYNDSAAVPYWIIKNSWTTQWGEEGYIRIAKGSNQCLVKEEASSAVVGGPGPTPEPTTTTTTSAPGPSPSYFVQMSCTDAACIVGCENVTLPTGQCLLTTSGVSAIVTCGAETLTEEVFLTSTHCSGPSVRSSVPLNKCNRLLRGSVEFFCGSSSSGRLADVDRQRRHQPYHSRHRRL
#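 15 min RT preincubation of 1.5 nM cruzain with compound, then 2 uM Z-FR-AMC added; kinetic AMC fluorescence, 60 s delta. Triton X-100 0.01%, pH 5.5.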
# RE007 growth inh = qHTS Assay for Inhibitors of the HIV-1 protein Vpr | S. pombe RE007 Vpr strain, BacTiter-Glo ATP luminescence, 24 h; control for the full effect not named in the record | Potency, µM (series often up to 92.2 µM), inactives show at the top dose activity change, negative = less growth | 360,000 compounds, 0.21% hits; active = well fitted falling curve with a large enough effect; inconclusive = small, poorly fitted or top-dose-only effect; inactive = no such curve, though single readings can be large or run the other way;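 note: % is set by controls: 0 for no effect and ±100 for the full control effect; nearly all actives have a fitted effect of over 50% in size; the assay follows cell death caused by Vpr and the record does not say whether a fall means rescue or toxicity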
#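 Fission yeast RE007 carrying one integrated HIV-1 vpr copy, seeded at OD 0.01 in PMG+AL medium with 23 nL pinned compound. Grown 24 h at 30 degrees; viability read by BacTiter-Glo luminescence after 5 min.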
# LASV entry inh = qHTS for Inhibitors of binding or entry into cells for Lassa Virus; Lassa virus pseudotype entry inhibition, cell reporter; control for the full effect not named in the record; Potency, µM (highest dose often 37.9 µM), inactives show top-dose activity change, negative = inhibition, actives largely listed as inhibitors; 300,000 compounds, 1.2% hits; AID 540256, 2011; active means well fitted inhibition curve with a large enough effect; inconclusive means small, poorly fitted or top-dose-only effect, or effect the other way; inactive means flat fitted curve, though single readings scatter; tested in HEK293 cells; note: % is set by controls: 0 for no effect and ±100 for the full control effect; nearly all actives have a fitted effect of over 50% in size; luciferase read-out
# Cruzain noTriton = qHTS Assay for Promiscuous and Specific Inhibitors of Cruzain (without detergent). Cruzipain (Trypanosoma cruzi), P25779. 200,000 compounds, 2.3% hits. Potency, µM, for inactives: max response, negative = inhibition, actives largely listed as inhibitors. purified cruzain, Z-FR-AMC fluorescence, no detergent;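 note: plate controls were enzyme without inhibitor for no effect and buffer without enzyme for full effect; nearly all actives have a fitted effect of over 40% in size; top concentration of the series not given in the record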
#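 Purified cruzain at 1.5 nM, pre-incubated 15 min with compound at room temperature in 100 mM sodium acetate pH 5.5, 5 mM DTT, 0.00005% Triton X-100. Reaction started with 2 uM Z-FR-AMC; AMC fluorescence increase over 60 s gives rate.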
# MARV entry inh = qHTS for inhibitors of binding or entry into cells for Marburg Virus; Marburg virus pseudotyped entry inhibition, cell reporter; control for the full effect not named in the record; about a third of the inactives were read at about 46 µM; Potency, µM (highest dose often 37.8 µM), for inactives: at the top dose activity change, negative = inhibition, actives largely listed as inhibitors; 300,000 compounds, 1.8% hits; AID 540276, 2011; active = well fitted inhibition curve with a large enough effect; inconclusive = small, poorly fitted or top-dose-only effect, or effect the other way; inactive = flat fitted curve, though single readings scatter; tested in HEK293 cells; about a fifth of its hits are not listed in these tables; note: % is set by controls: 0 for no effect and ±100 for the full control effect; luciferase read-out
# SARS PLP yeast = qHTS of Yeast-based Assay for SARS-CoV PLP | S. cerevisiae expressing SARS-CoV PLpro, growth rescue; control for the full effect not named in the record | Potency, µM (doses to about 32.9 µM), for the others: at the top dose activity, positive = growth rescue | 330,000 compounds, 0.19% hits; active means well fitted rising curve with a large enough effect; inconclusive means small, poorly fitted or top-dose-only effect; inactive means no such curve, though single readings can be large or run the other way; note: 0% is about no effect; nearly all actives have a fitted effect of over 55% in size; growth read by luminescence after 48 h
# NS1 inh = qHTS Assay for Inhibitors of Influenza NS1 Protein Function. Potency, µM (titrated, usually from 46.1 µM), for the others: at the highest dose activity, positive = more growth. 270,000 compounds, 0.4% hits. S. cerevisiae slowed by influenza A NS1, growth recovery by OD600; active means well fitted rising curve with a large enough effect; inconclusive means small, poorly fitted or top-dose-only effect; inactive means no such curve, though single readings can be large or run the other way; note: nearly all actives have a fitted effect of over 50% in size
#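 In this qHTS, NS1 from influenza A is expressed in budding yeast, where it slows growth. Cells are switched from glucose to 2% galactose medium (pH 6.0, -URA), treated with compound, and growth recovery is read at OD600.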
# Starred values were filed as active, the others as inactive; ? = inconclusive; . = not tested or not shown; & = joins results of further samples; [ ] = dose if it differs, or a comment. Unless noted, calls come from the whole dose curve; as a rule, active = well fitted curve in the direction sought with a large enough effect; inconclusive = small, poorly fitted or top-dose-only effect, or another doubt; inactive = no such curve, though single readings can be large; an effect the other way counts as inactive or inconclusive. Potency is the fitted concentration of half-maximal effect.
SMILES,StopGo reporter,Cruzain inh Det,RE007 growth inh,LASV entry inh,Cruzain noTriton,MARV entry inh,SARS PLP yeast,NS1 inh
CCOC(=O)Cc1csc(NC(=O)Nc2cccc(Cl)c2)n1,?,-6.7%,5%,?,-12%,-5%[46.1 µM],13%,2%
CC(=O)c1sc(NC(=O)C2CCN(c3ncnc4sc(C)c(C)c34)CC2)nc1-c1ccccc1,4%,.,-1%,2%,.,-6%,.,.
Cc1nn(C)c(C)c1Nc1ccc(N2C(=O)C3C4C=CC(C4)C3C2=O)cc1[N+](=O)[O-] (stereo unspecified),-2%,.,-2%,-25%[46.1 µM],.,?,1%,.
Clc1ccc(CSc2ncn[nH]2)cc1,29%,2.5%,-27%,13%,5%,1%,-5%,-14%
COc1cc(/C=C/[N+](=O)[O-])ccc1OCc1cccc(C(=O)O)c1,10µM*,.,-10%,0.63µM*,.,?,1%,-1%
O=C(CN1C(=O)NC2(CCCC2)C1=O)N1CCN(Cc2ccccc2)CC1,-22%,.,0%,2%,.,-1%[46.1 µM],1%,.
COC(=O)CNC(=O)c1ccc(NS(=O)(=O)c2cc([N+](=O)[O-])ccc2Cl)cc1,-19%,.,4%,.,.,.,-1%,1%
Cc1ccc(-n2nc3c(c2NC(=O)c2ccco2)CS(=O)(=O)C3)c(C)c1,-9%,.,7%,.,.,.,13%,12%
Cc1ccc(-n2c(O)c(/C=N/Nc3ccccc3)c(=O)[nH]c2=O)cc1C,-6%,.,285%,-9%[46.1 µM],.,?,-3%,-31%
COc1ccc2c(c1)c(C(=O)O)c(C)n2-c1ccccc1,-12%,.,-1%,-13%,.,0%[46.1 µM],-1%,-3%
Cc1cccc(Nc2nc(N)nc(CSC(=S)N3CCOCC3)n2)c1,6%,-12%,3%,?,-7%,?,8%,-5%
CCN(CC)C(=O)CC(c1ccc(F)cc1)c1ccc(OC)cc1 (stereo unspecified),-30%,-3.3%,0%,-24%,1%,-25%,13%,6%
Cc1cc(-c2nnc(SCC(=O)Nc3ccc(S(N)(=O)=O)cc3)n2N)n[nH]1,-2%,.,2%,?,.,4%[46.1 µM],0%,3%
Cc1ccc(S(=O)(=O)N2CCN(C(=O)CN3C(=O)NC(C)(c4ccc5ccccc5c4)C3=O)CC2)cc1 (stereo unspecified),?,.,5%,?,.,-22%,.,.
CN1CCN(c2ccc(C(CC(N)=O)NC(=O)c3ccccc3)cc2[N+](=O)[O-])CC1 (stereo unspecified),-16%,.,4%,.,.,.,-4%,-3%
CC(C)C(NS(=O)(=O)c1cccs1)C(=O)Nc1nc(C(C)(C)C)cs1 (stereo unspecified),.,-8.0%,-9%,-15%,2%,?,-17%,-14%
NC(=O)c1ccc[n+](CC(=O)Nc2ccccc2C(=O)O)c1,-3%,.,14%,-19%[46.1 µM],.,9%[46.1 µM],4%,3%
CC(=O)Nc1nnc(-c2ccco2)o1,16%,.,2%,13%,.,-3%[46.1 µM],-2%,.
O=c1[nH]c2ccccc2c(O)c1O,-27%,.,-4%,.,.,.,0%,1%
COc1ccccc1C(=O)Nc1sc2c(c1C(N)=O)CCCC2,37%[activator],.,-3%,10%,.,29%,-12%,1%
CCOc1ccc(NC(=O)Cn2nnc3c(cnn3-c3ccc(F)cc3)c2=O)cc1,-4%,.,11%,0%,.,-1%,-1%,.
CC(=O)NCCNC(=O)c1ccc(Cn2c(=O)[nH]c3ccsc3c2=O)cc1,-10%,.,2%,7%[46.1 µM],.,10%[46.1 µM],0%,3%
NCc1cccc(-n2cccn2)c1,-11%,4.2%,0%,13%,5%,16%,1%,3%
CC(C)C(=O)N1N=C(c2ccc(NS(C)(=O)=O)cc2)CC1c1cccs1 (stereo unspecified),19%,-6.9%,6%,?,7%,?,14%,-4%
COc1ccccc1CNC(=O)CCNC(=O)Cn1ccc2ccccc2c1=O,-25%,1.5%,-6%,?,3%,18%&18%,0%,-2%
c1cc(-c2cccs2)nc(-c2cccs2)c1,-18%,-7.8%,-11%,?,-3%,12%[46.1 µM],-4%,-7%
Cc1c(OCC(=O)NCC(O)c2ccccc2)ccc2c3c(c(=O)oc12)CCCC3 (stereo unspecified),?,.,-14%,.,.,.,-10%,9%
COc1ccccc1OCC(=O)Nc1cc(-c2ccc(C)cc2)no1,20%,-8.1%,.,23%[46.1 µM],-6%,?,.,.
Cc1nn(-c2ccccc2)c(N2CCCC2)c1/C=N/Nc1ccc(S(N)(=O)=O)cc1[N+](=O)[O-],0%,-5.7%,8%,?,-12%,?,8%,?
Cc1c(C(=O)COC(C)(C)C)[nH]c2ccccc12,0%,-9.3%,-27%,25%,-16%,0%,0%,-53%
CCC(C)NCCOc1ccccc1C (stereo unspecified),1%,.,-7%,-7%,.,2%[46.1 µM],5%,1%
C=CCN1C(=O)NC(=O)/C(=C/c2ccc(OCC(=O)Nc3ccc(C)cc3)cc2)C1=O,17%,.,1%,.,.,.,4%,5%
Cc1ccc(C)c(NC(=O)C2CC(O)CN2C(=O)Oc2ccccc2)c1 (stereo unspecified),-13%,.,-13%,3%,.,0%[46.1 µM],-2%,15%
COc1ccc(NC(=O)C2CCN(S(=O)(=O)c3ccc4c(c3)CCCC(=O)N4)CC2)c(OC)c1,-22%,-0.9%,.,-19%[46.1 µM],12%,.,.,.
O=C(Nc1ccccc1C(=O)NC(Cc1ccccc1)C(=O)O)c1ccco1 (stereo unspecified),-11%,.,25%,.,.,.,0%,1%
Cc1cccc(CCNC(=O)C2CCN(S(=O)(=O)c3cccc4nsnc34)CC2)c1,.,5.3%,-15%,-3%,?,-6%,-2%,0%
COc1ccccc1NS(=O)(=O)c1cccc(N2CC(O)=C(c3ccccc3)C2=N)c1,-3%,-1.5%,3%,10%,-6%,7%,-3%,5%
O=C(COc1ccc(Br)cc1)N/N=C1\SCC(=O)N1c1ccc(F)cc1,-5%,-2.3%,.,4%,-1%,-1%,5%,9%
CCC/C(O)=C1\C(=O)CC(C)(C)CC1=Nc1ccc(OC)cc1,0%,.,25%,?,.,?,-4%,-27%
O=C(c1ccccc1)c1ccc(Cn2cc(CCCO)nn2)cc1,-15%,.,9%,.,.,.,13%,31%
O=C(NC12CC3CC(CC(C3)C1)C2)c1ccccc1,-12%,.,-7%,-10%,.,3%[46.1 µM],-2%,-3%
CCOc1ccc2[nH]c3c(c2c1)CNCC3,8%,.,1%,.,.,.,1%,8%
O=C(COc1ccc2oc3c(c2c1)CCCC3)Nc1cccc(Br)c1,-17%,-5.8%,.,19%[46.1 µM],?,-24%[46.1 µM],.,.
Cc1ccc(Cn2c3ccccc3c3cn[nH]c(=O)c32)cc1,0%,-3.5%,-8%,.,-8%,.,-6%,-13%
Cc1ccc(OCC(=O)Nc2c(C)ccc3nsnc23)cc1,0%,.,-13%,.,.,.,0%,-6%
N#Cc1ccc(-c2cccnc2)nc1SCc1ccc(Cl)c(Cl)c1,-26%,-7.6%,0%,0%,3%,-1%,?,4%
CC(C)c1cc(Br)ccc1OCCCN1C(=O)NC(C)(C)C1=O,?,-5.6%,31%,?,?,3%,-28%,-49%
COCc1nnc(NS(=O)(=O)c2ccc([N+](=O)[O-])cc2)s1,17%,-3.7%,27%,1%,-1%,6%,-14%,-5%
CCN(C1CCCCC1)S(=O)(=O)c1ccc(S(=O)(=O)N(CC(=O)Nc2ccccc2)C2CC2)cc1,-34%,-2.7%,-2%,-13%[14.3 µM],2%,-1%,-2%,8%
COc1ccc(C(=O)Nc2ccccc2C(=O)Nc2cccc(C)n2)cc1,29%,.,-5%,.,.,.,-3%,7%

# Other results follow:
SMILES,StopGo reporter,Cruzain inh Det,RE007 growth inh,LASV entry inh,Cruzain noTriton,MARV entry inh,SARS PLP yeast,NS1 inh
COC(=O)Cn1c(=NC(=O)CSCC(=O)Nc2cc(C)on2)sc2cc(C(=O)OC)ccc21,-4%,.,3%,.,.,.,24%,0%
C=CCOc1ccc(C2/C(=C(/O)c3ccc4c(c3)CC(C)O4)C(=O)C(=O)N2CCCN2CCOCC2)cc1 (stereo unspecified),?,.,2%,-20%,.,-3%,-5%,1%
COc1cc(C)c(Cl)cc1S(=O)(=O)n1ccnc1,-11%,.,0%,5%,.,?,1%,5%
COc1ccc2[nH]cc(/C=C/C(=O)c3ccccc3)c2c1,60%[activator],.,-10%,?,.,?,-3%,-8%
CCOc1cnc(-c2ccc(OC)cc2)o1,23%,-0.8%,-14%,-17%,-4%,?,9%,-1%
S=c1sc2c(N3CCN(Cc4ccccc4)CC3)ncnc2n1-c1ccccc1,28µM*,8.9%,0%,-9%,?,?,-4%,3%
COc1ccc(S(=O)(=O)NCCc2nnc3ccc(SCC(=O)Nc4ccccc4C)nn23)cc1,15%,-2.5%,.,22%[46.1 µM],7%,.,.,.
CCn1c(=O)c2ccccc2n2c(SCC(N)=O)nnc12,6%,.,-6%,19%[46.1 µM],.,6%[46.1 µM],?,-1%
NC(=O)CSc1nnc(-c2ccoc2)o1,-5%,5.5%,8%,20%,27%,-1%,5%,3%
COc1ccc(C(=O)OCC(O)COC(=O)c2ccc(OC)cc2)cc1,1%,.,-18%,7%[46.1 µM],.,1%[46.1 µM],.,.
COC(=O)c1c(NC(=O)COc2ccc(OC)cc2)sc2c1CCC(C)C2 (stereo unspecified),?,-3.8%,.,15%[46.1 µM],10%,.,.,.
CCc1noc(C)c1C(=O)Nc1ccc(C)c(S(=O)(=O)N2CCCCCC2)c1,28µM*,.,-14%,-28%,.,?,9%,.
Cc1ccc(OCCCN(C)C)c(Br)c1,-9%,1.9%,6%,5%,3%,0%,8%,-6%
COc1ccc(C(=O)OCC(=O)NCCN2C(=O)CSC2=O)cc1,-8%,.,-12%,10%,.,0%[46.1 µM],-1%,.
